TSHR ag – qHTS Assay for Agonists of the Thyroid Stimulating Hormone Receptor; Thyrotropin receptor (Homo sapiens), P16473; HEK293-CNG-TSHR cells (CNG channel as cAMP sensor), membrane potential dye, cAMP; Potency, µM (top dose mostly 57.1 µM), for inactives: at the top dose activation, actives largely listed as activators; actives 0.48% (n = 73,000); active = well fitted activation curve of enough size with the parental cells flat; inconclusive = any curve in the parental cells; inactive = parental cells flat and receptor cells flat or falling; note: potency is the fitted concentration of half-maximal effect; % of control where 0% means no effect; weak receptor curves with flat parental cells got no call and are not listed
Target sequence (P16473 whole entry, looked up): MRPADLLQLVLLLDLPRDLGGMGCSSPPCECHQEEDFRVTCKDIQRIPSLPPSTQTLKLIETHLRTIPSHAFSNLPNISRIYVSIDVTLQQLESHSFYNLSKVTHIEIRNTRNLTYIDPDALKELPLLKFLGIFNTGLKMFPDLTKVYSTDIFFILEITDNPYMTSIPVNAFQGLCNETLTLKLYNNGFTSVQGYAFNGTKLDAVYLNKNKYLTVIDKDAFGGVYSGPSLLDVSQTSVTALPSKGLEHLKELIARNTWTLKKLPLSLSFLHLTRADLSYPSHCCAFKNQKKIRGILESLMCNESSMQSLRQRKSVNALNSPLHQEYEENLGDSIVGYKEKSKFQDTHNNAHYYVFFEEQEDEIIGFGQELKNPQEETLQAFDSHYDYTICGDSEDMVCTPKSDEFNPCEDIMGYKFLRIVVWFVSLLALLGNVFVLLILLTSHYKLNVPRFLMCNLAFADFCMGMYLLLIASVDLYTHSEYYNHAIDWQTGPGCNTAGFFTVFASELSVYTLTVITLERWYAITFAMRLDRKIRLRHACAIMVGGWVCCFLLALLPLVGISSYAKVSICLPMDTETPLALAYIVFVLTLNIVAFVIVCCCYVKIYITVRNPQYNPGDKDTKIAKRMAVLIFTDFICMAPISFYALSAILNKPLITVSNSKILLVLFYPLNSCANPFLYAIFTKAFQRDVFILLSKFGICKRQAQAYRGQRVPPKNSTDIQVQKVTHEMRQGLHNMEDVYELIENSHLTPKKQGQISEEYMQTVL
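cAMP rise detected as CNG-channel membrane depolarization by fluorescent dye (emission 590 nm), 30 min after compound, following 60 min dye loading containing 100 uM RO 20-1724 at room temperature. Cells: TSHR/CNG HEK 293, with parental CNG HEK 293 as control.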
Resorufin autofl – qHTS Assay for Spectroscopic Profiling in Resorufin Spectral Region; Compound fluorescence, resorufin region 547/598 nm, buffer; stronger effect = higher value; max dye-equivalent concentration, M; actives 0.04% (n = 59,000); AID 588, 2007; active = above 10 nM dye equivalent; inconclusive = 1 to 10 nM; inactive = 1 nM or less; a few of its hits are not listed in these tables; note: highest value over a series up to 38 µM
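Dye-equivalent concentration values derive from comparing each well's 547/598 nm fluorescence against resorufin standards included on every plate. Incubation was 15 min at room temperature in 100 mM Tris, pH 8.0.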
A488 fluor – qHTS Assay for Spectroscopic Profiling in A488 Spectral Region | AID 591, 2007 | compound autofluorescence, A488 spectral region, dye equivalency; stronger effect = higher value | actives 0.1% (n = 59,000) | max dye equivalency, M; active = above 10 nM dye equivalent; inconclusive = 1 to 10 nM; inactive = 1 nM or less; about half of its hits are not listed in these tables;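 note: highest value over a series up to 38 µM; compound alone in buffer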
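Spectroscopic profiling in the A488 region: compounds in pH 8.0 Tris (100 mM), 15 min RT, CCD imaging with 480 nm excitation and 540 nm emission; responses normalized against A488 dye standards.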
A647 autofl – qHTS Assay for Spectroscopic Profiling in A647 Spectral Region; AID 592, 2007; Compound fluorescence, A647 channel (570/671 nm), Tris buffer; max dye-equivalent concentration, M; 59,000 tested, under 10 active; active means above 1 µM dye equivalent; inconclusive means 0.1 to 1 µM; inactive means 0.1 µM or less;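 note: values scaled relative to a standard on each plate; highest value over a series up to 38 µM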
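Compounds pinned into 100 mM Tris pH 8.0, 15 min at room temperature, then read with 570 nm excitation/671 nm emission filters. Fluorescence normalized to an on-plate six-point Alexa 647 standard curve, giving dye-equivalent concentration per compound concentration.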
AID923 – qHTS Assay for Allosteric/Competitive Inhibitors of Caspase-1: Spectroscopic Profiling in AFC Spectral Region. compound fluorescence, AFC spectral region (405/520 nm); almost no hit is shown here. Potency, µM (doses to about 57.5 µM), inactives show top-dose fluorescence increase, usual class: activators. actives 1.1% (n = 75,000). AID 923, 2007; active = well fitted activation curve with a large enough effect; inconclusive = small, poorly fitted or top-dose-only effect;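 note: potency is the fitted concentration of half-maximal effect; 0% is about no effect; scaled to a free AFC standard on each plate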
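Compound autofluorescence profiled at 405 nm ex/520 nm em during kinetic caspase 1 run (50 nM enzyme, 5 uM Ac-WEHD-AFC, HEPES pH 7.5, 10 mM DTT). Titration up to 57 uM; baseline from regression intercept, normalized to AFC standard curve.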
* = called active by the depositor; i = inactive; ? = inconclusive; / = not tested or not shown; & = joins results of further samples; [ ] = dose if it differs, or a comment.

Screens in order – TSHR ag, Resorufin autofl, A488 fluor, A647 autofl, AID923
> C=CCOc1cccc(C2C(C(=O)c3ccco3)=C(O)C(=O)N2CCN2CCOCC2)c1 (configuration not stated)
  -0.8%, i, i, 5.89e-08, 3.5%
> Cc1onc(-c2ccccc2Cl)c1C(=O)NCCn1ccc2ccccc21
  2.4%, i, i, 4.2e-08, 0.5%
> O=C(c1cccc(S(=O)(=O)N2CCCCC2)c1)N1CCCCC1
  9.3%, i, i, 3.56e-08, -0.9%
> CN1CCN(C(=O)c2ccc(-c3nn(C)c(=O)c4ccccc34)cc2)CC1
  3.8%, i, i, 5.2e-09, 0.4%
> O=C(c1ccco1)N1CCN(c2cc(=O)n(C3CCCCC3)c(=O)[nH]2)CC1
  -5.9%, i, i, 2.4e-08, 0.0%
> O=C1c2ccccc2C(=O)N1n1c(=O)[nH]c2ccccc2c1=O
  -5.2%, i, i, 1.1e-09, -1.3%
> O=C(CN1CCN(S(=O)(=O)c2ccc(Cl)cc2)CC1)Nc1ccc(F)cc1F
  20.6%, /, /, /, 1.2%
> Cn1c(SCc2ccccc2F)nc2cccnc21
  10.6%, i, i, 4.29e-08, -4.0%
> COCc1[nH]nc2c1C(c1ccnc3ccccc13)C(C#N)=C(N)O2 (configuration not stated)
  /, i, i, 1e-09, /
> CCOc1ccc(C2N(c3ccc(F)cc3)C(=O)C3CCCN32)cc1OC (configuration not stated)
  5.1%, /, /, /, -1.8%
> Cc1cnc(CNc2ccnc(-c3cccc(NS(C)(=O)=O)c3)n2)cn1
  ?, i, i, 2.9e-09, 5.9%
> CCC(C)(C)n1nnnc1C(c1ccncc1)N1CCN(c2cccc(OC)c2)CC1 (configuration not stated)
  ?, i, i, 1e-09, 2.0%
> O=C(c1ccccc1)N(Cc1ccc2c(c1)OCO2)Cc1nc2ccccc2c(=O)[nH]1
  8.3%, i, i, 1e-09, -2.8%
> COc1ccccc1Oc1nc2c(c(=O)n(Cc3ccccc3F)c(=O)n2C)n1C
  ?, i, i, 7e-09, 1.8%
> CCOC(=O)c1c(NC(=O)CSc2nnc(-c3ccccc3C)n2C)sc(C(C)=O)c1C
  ?, i, i, 1e-09, 1.2%
> CCc1ccc(C(=O)CSc2n[nH]c(C)n2)cc1
  0.4%[11.4 µM], /, /, /, 1.7%
> C=CCSc1nnc(CSc2nc3sc4c(c3c(=O)[nH]2)CCCC4)n1-c1ccccc1
  ?, /, /, /, -0.2%
> Cn1c(N2CCCCC2)nc2c1c(=O)[nH]c(=O)n2C
  -15.8%, i, i, 2.7e-08, 3.1%
> CCCc1nc2ccccc2c(=O)n1/N=C/c1ccccc1O
  14.9%, i, i, 2.39e-08, -0.7%
> C[C@@H]1C[C@H](OC(=O)[C@@H](O)c2ccccc2)CC(C)(C)N1C
  -10.2%[25.6 µM], i, i, 1.34e-08, 8.8%[25.7 µM]
> COc1cccc(-c2ccc3ncnc(N4CCNCC4)c3c2)c1
  8.1%, i, i, 3.31e-08, 2.0%
> CCOC(=O)c1sc2nc(C)cc(C)c2c1NC(=O)c1ccco1
  10.8%, i, i, 7.5e-09, -0.5%
> c1cc(-c2sc(-c3ccncc3)c(-c3ccncc3)c2-c2ccncc2)ccn1
  26.4%[11.4 µM], i, i, 1e-09, -1.4%[11.5 µM]
> Cc1ccc(N2C(=O)CSC23C(=O)Nc2ccccc23)cc1 (configuration not stated)
  -2.1%[11.4 µM], i, i, 2.83e-08, 0.0%
> CC(C(N)=O)N1C(=O)C2C3C=CC(C3)C2C1=O (configuration not stated)
  1.2%[11.4 µM], i, i, 6.7e-09, 0.8%
> COc1ccc(NC(=O)c2cccs2)cc1O
  -1.5%[11.4 µM], i, i, 8.2e-09, -1.2%
> Oc1c(C(c2ccccn2)N2CCOCC2)ccc2cccnc12 (configuration not stated)
  3.5%, i, i, 1.75e-08, -0.1%
> C=CCN1CCN(C(c2ccc(OC)c(OC)c2)c2nnnn2C(C)(C)C)CC1 (configuration not stated)
  0.5%, i, i, 1e-09, 0.6%
> Cn1c(=O)[nH]c2ncn(C)c2c1=O
  ?, i, i, 5.08e-08, -1.2%&-1.7%
> COC(=O)c1ccc(NC(=O)CS(=O)(=O)Cc2ccccc2)cc1
  28.9%, i, i, 1.39e-08, 1.8%

Filtered by structure: the entries above with a Cl atom (2)
Screens in order – TSHR ag, Resorufin autofl, A488 fluor, A647 autofl, AID923
> Cc1onc(-c2ccccc2Cl)c1C(=O)NCCn1ccc2ccccc21
  2.4%, i, i, 4.2e-08, 0.5%
> O=C(CN1CCN(S(=O)(=O)c2ccc(Cl)cc2)CC1)Nc1ccc(F)cc1F
  20.6%, /, /, /, 1.2%

New compounds follow.
Screens in order – TSHR ag, Resorufin autofl, A488 fluor, A647 autofl, AID923
> O=c1c2ccccc2nc(-c2ccccc2)n1CCCN1CCOCC1
  7.3%, i, i, 1e-09, 0.0%
> O=C(c1cnccn1)N1CCC2(CC1)CN(Cc1cc(C(F)(F)F)cc(C(F)(F)F)c1)C2
  19.7%, i, i, 1.06e-08, 2.6%
> Oc1ccccc1C(=S)N1CCCCC1
  -8.6%, /, /, /, 2.9%
> CN1c2ccccc2N(C)C1c1ccc2c(c1)OCO2
  1.5%, i, i, 2.5e-09, -0.2%
> C=CCn1c(SCC(=O)NCC2CCCO2)nc2scc(-c3ccco3)c2c1=O (configuration not stated)
  24.4%, i, i, 1.7e-09, 0.1%
> N[C@H](CCC(=O)N[C@H](CSN=O)C(=O)NCC(=O)O)C(=O)O
  0.4%&2.8%, i, i, 9.1e-09, 0.1%&-0.3%
> O=C(CSCCSCC(=O)c1ccco1)c1ccco1
  -2.6%, i, i, 3e-09, -0.1%
> O=c1cc(NCCO)c2ccccc2o1
  12.2%, /, /, /, -4.0%
> COC(=O)N1CCC2(CC1)CN(C(c1ccccc1)c1ccccc1)C2
  18.5%, i, i, 1.15e-08, -0.8%
> C=CCn1c(SCC(=O)NCc2ccccc2)nnc1-c1ccccc1O
  21.6%, i, i, 1.63e-08, -1.7%
> Cn1c(=O)c2c(nc(CN3CCc4ccccc4C3)n2Cc2ccc(F)cc2)n(C)c1=O
  11.0%, i, i, 4.76e-08, 4.2%
> CCCC(=O)c1ccc(N2CCN(C(=O)OCC)CC2)c(F)c1
  17.2%, i, i, 5e-09, 0.9%
> CCN1CCN(Cc2nc3c(c(=O)[nH]c(=O)n3C)n2Cc2ccccc2Cl)CC1
  -17.5%, /, /, /, -1.4%
> CCCCn1c(SCC(=O)Nc2cc(C)on2)nc2c1c(=O)n(C)c(=O)n2C
  -4.3%, i, i, 5.6e-09, -0.5%
> CC1CCCC(C)N1C(=O)CSc1nnc(CSc2ncccn2)n1C (configuration not stated)
  -2.2%, i, i, 1.6e-09, 2.2%
> COc1cccc(Cn2c(NCC(C)C)nc3c2c(=O)n(C)c(=O)n3C)c1
  /, i, i, 4.86e-08, /
> CCOc1ccc(C(=O)NCc2ccncc2)cc1
  2.0%, i, i, 1e-09, 0.5%
> O=C(NCc1cccs1)C1CC(c2ccccc2O)=NO1 (configuration not stated)
  -13.7%, i, i, 2.95e-08, 0.2%
> N#Cc1c(N)nc(SCC(=O)NCCc2ccccc2)c(C#N)c1-c1cccs1
  /, i, i, 1e-09, /
> CCCCN(CCCC)C(=O)CSc1nnc(-c2cc(OC)c(OC)c(OC)c2)o1
  ?, i, i, 1e-09, 1.9%
> CCOC(=O)N1CCC(N2CCN(S(=O)(=O)c3ccc(NC(C)=O)cc3)CC2)CC1
  -0.8%, i, i, 3.96e-08, -0.3%
> CC(C)C1C(C#N)=C(N)Oc2n[nH]c(C(C)(C)C)c21 (configuration not stated)
  /, i, i, 1e-09, /
> O=C(Oc1cccc2cccnc12)c1ccc(Br)o1
  2.3%, i, i, 1e-09, 1.8%
> COCCn1c(=O)cnc2cnc(Oc3ccccc3)nc21
  0.3%, i, i, 2.01e-08, 1.8%
> CCOC(=O)c1nnn(-c2nonc2N)c1CNC(C)C
  5.7%, i, i, 2.88e-08, 1.1%
> CC1(C)Cc2c(c(-c3ccco3)[nH]c(=O)c2C#N)CS1
  /, i, ?, 6.1e-09, /
> COc1ccc(OC)c(S(=O)(=O)N(C)CC(=O)Nc2ccccc2OC)c1
  15.5%, i, i, 4.4e-09, 4.0%
> CCOC(=O)CCN1C(=O)[C@H]2[C@H]3[C@H](O)[C@H](O)C/C(=N/OC/C=C(\C)CCC=C(C)C)[C@H]3CC[C@@H]2C1=O
  -2.8%[11.4 µM], /, /, /, -1.4%[11.5 µM]
> CCCn1c(C)cc(C(=O)COc2ncnc3sccc23)c1C
  -1.0%, i, i, 1e-09, 0.9%
> Cc1ccc(S(=O)(=O)N[C@H]2COC(=O)CC=C[C@@H](C)[C@H]3C=C[C@H](O)[C@@H](COC(=O)CC=C[C@H]2C)O3)cc1
  -7.1%&1.5%[11.4 µM], /, /, /, -1.0%&0.8%[11.5 µM]
> CCn1nc(C(=O)N2CCN(Cc3ccc4c(c3)OCO4)CC2)c2ccccc2c1=O
  -2.5%[11.4 µM], i, i, 1.99e-08, -0.3%
> Cn1c(=O)[nH]c(=O)c2c1nc(SCC(O)CO)n2Cc1ccccc1Cl (configuration not stated)
  -14.0%, i, i, 1e-09, 18.2%
> CCOC(=O)N1CCN(S(=O)(=O)c2ccc(F)c(C(=O)Nc3cccc(C)c3C)c2)CC1
  ?, i, i, 1.06e-08, -1.1%
> O=C(CSc1nnc(-c2ccccc2)o1)N1CCOCC1
  15.8%, i, i, 2.56e-08, -0.8%
> CCOC(=O)c1c(N)nn(C(=O)C(C)(C)C)c1-c1ccccc1
  /, i, i, 1e-09, 0.9%
> CCOc1ccccc1Oc1ccc(C(F)(F)F)cn1
  5.8%, i, i, 4.68e-08, -0.2%
> COc1ccc(OC)c(NC(=O)c2cc(S(=O)(=O)NCc3ccco3)ccc2F)c1
  /, i, i, 8.1e-09, 5.8%
> COCCNC(=O)CN(c1ccc(OC)c(OC)c1)S(=O)(=O)c1ccc(C)cc1
  1.3%, /, /, /, 4.3%
> S=c1[nH]nc(-c2ccc(Br)cc2)n1Cc1ccco1
  3.9%[11.4 µM], i, i, 3.6e-09, -0.7%
> O=C(O)CCc1n[nH]c(=S)[nH]c1=O
  -2.1%, /, /, /, -0.1%
> O=C(Nc1ccccn1)NC1CCS(=O)(=O)C1 (configuration not stated)
  4.3%[11.4 µM], /, /, /, 1.5%
> O=C(Nc1c2c(nn1-c1ccc(Cl)cc1)CS(=O)(=O)C2)c1ccc2c(c1)OCO2
  ?, i, i, 5.7e-09, -1.3%
> Cc1ccc(CNC(=O)c2nnn(-c3cccc(C)c3)c2N)cc1
  7.3%, i, i, 3.3e-09, -1.2%
> CN(C)S(=O)(=O)c1ccc(C(=O)OCC(=O)NC(=O)NCc2ccccc2)cc1
  -2.6%, i, i, 1e-09, -0.1%
> Cc1n[nH]c(C)c1SCC(=O)Nc1ccc(F)cc1
  -0.8%, i, i, 2.05e-08, -0.7%
> Nc1nc(Nc2ccccc2)nc2ccccc12
  ?, i, i, 2.8e-08, -0.3%
> CCN(C(=O)Cn1c(=O)oc2ccccc21)c1cccc(C(F)(F)F)c1
  5.0%, i, i, 4.8e-09, 1.8%
> C(=N\c1nccs1)/Nc1nccs1
  7.9%, i, i, 1.55e-08, -0.6%
> Cc1cc(C(=O)N[C@H](c2ccccc2)[C@@]2(C)C[C@@H]2[C@@H](C)C(=O)Nc2ccc3ccccc3c2)no1
  ?, /, /, /, 1.1%
> COc1cc(C)nc(NCc2ccccc2)n1
  26.3%, i, i, 4.78e-08, 0.1%
> Cc1nc2nc(C)n(-c3ccccc3)c2s1
  5.7%, i, i, 4.29e-08, 1.2%
> C=CCn1c(C)c(C(C)=O)c(N2CCOCC2)nc1=S
  5.2%, /, /, /, 6.6%

A portion of the library; the hit share may differ from the screen's.
